D2 potentiator = Beta-Arrestin HTS for Positive Allosteric Modulators of the Human D2 Dopamine Receptor: Potentiators. D(2) dopamine receptor (Homo sapiens), P14416. DiscoveRx D2 beta-arrestin cells, luminescence, 90 min; 100% = 57 uM dopamine signal. potentiation, % (no concentration beside the values). 360,000 compounds, 0.23% hits. AID 624464, 2012; active = potentiation of 50% or more; inconclusive = 30% to 50%; inactive = 30% or less;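 also: compound concentration not given in the record; tested on top of an EC20 dose of dopamine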
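PathHunter D2 cells, attached overnight at 37 deg C, received compound in DMSO plus dopamine at EC20 (50 nM final) for 90 min at 37 deg C. Beta-arrestin recruitment was read as luminescence after 1 h with detection reagent at ambient temperature.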
Six1-Eya2 blk = qHTS Assay for Inhibitors of the Six1/Eya2 Interaction; Homeobox protein SIX1 (Homo sapiens) + Protein phosphatase EYA2 (Homo sapiens), …; AlphaScreen GST-Six1/His-Eya2 binding, biochemical; stronger effect = lower value; control for the full effect not named in the record; activity change, % (no concentration beside the values); 360,000 compounds, 0.56% hits; in the data active = activity change below about -65%; inconclusive = about -30% to -65%; inactive = above about -30%; also: % is scaled to controls: 0 for no effect and ±100 for the full control effect
Target sequence (O00167 whole entry, looked up): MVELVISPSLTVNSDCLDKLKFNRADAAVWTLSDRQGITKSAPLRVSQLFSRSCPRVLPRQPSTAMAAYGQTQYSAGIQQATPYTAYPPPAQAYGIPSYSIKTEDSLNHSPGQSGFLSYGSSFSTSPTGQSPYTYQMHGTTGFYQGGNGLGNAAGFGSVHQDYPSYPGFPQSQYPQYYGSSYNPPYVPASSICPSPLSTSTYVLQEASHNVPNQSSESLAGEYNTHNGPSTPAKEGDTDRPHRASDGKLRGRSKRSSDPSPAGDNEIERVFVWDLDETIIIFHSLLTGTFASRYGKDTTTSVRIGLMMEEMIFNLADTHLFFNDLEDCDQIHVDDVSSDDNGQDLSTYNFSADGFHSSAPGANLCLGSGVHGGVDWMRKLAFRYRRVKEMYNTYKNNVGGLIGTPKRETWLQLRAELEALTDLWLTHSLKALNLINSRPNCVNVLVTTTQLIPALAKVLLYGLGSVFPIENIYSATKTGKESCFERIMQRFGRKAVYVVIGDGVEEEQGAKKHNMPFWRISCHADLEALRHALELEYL
Target sequence (Q15475 whole entry, looked up): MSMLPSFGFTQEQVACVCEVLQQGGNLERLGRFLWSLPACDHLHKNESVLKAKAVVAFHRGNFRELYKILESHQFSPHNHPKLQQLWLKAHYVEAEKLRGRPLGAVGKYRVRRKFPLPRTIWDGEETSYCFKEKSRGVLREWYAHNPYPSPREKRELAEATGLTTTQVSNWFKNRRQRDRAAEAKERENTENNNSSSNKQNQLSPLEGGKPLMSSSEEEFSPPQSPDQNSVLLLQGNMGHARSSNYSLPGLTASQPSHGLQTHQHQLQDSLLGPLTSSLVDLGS
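Homogeneous AlphaScreen proximity assay pairing GST-Six1 with His-tagged Eya2 (added as 5X mix: 250 nM and 500 nM) in 50 mM Tris pH 8.0, 300 mM NaCl, 1 mM TCEP. Glutathione donor and nickel acceptor beads; 1 h, 37 °C, dark.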
D2 agonist = Beta-Arrestin HTS for Positive Allosteric Modulators of the Human D2 Dopamine Receptor: Agonists; DiscoveRx PathHunter D2 beta-arrestin, luminescence, 90 min; 100% = 57 uM dopamine signal; activation, % (no concentration beside the values); 360,000 compounds, 0.084% hits; in the data active = activation above about 40%; inconclusive = about 15% to 40%; inactive = below about 15%; also: compound concentration not given in the record; the text of the record calls up to 30% inactive
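Agonist mode: compounds alone added to overnight-plated D2 PathHunter cells for 90 min at 37 C, with 57 uM final dopamine (EC100) defining full response. Beta-arrestin recruitment detected by chemiluminescent reagent, read after 1 h at ambient temperature.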
PINK1 modulator = A Quantitative High throughput Screen to Identify Chemical Modulators of PINK1 Expression. PINK1 immunofluorescence, high-content cytometry, 24 h. Potency, µM (top dose mostly 76.6 µM), inactives show at the highest dose activation (PINK1 increase), most hits filed as activators. 410,000 compounds, 0.2% hits. AID 624263, 2012; active = well fitted activation curve with a large enough effect; inconclusive = small, poorly fitted or top-dose-only effect; inactive = flat fitted curve, though single readings scatter; cell line not stated here;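 also: potency is read from the fitted curve at half-maximal effect; % of control where 0% means no effect; nearly all actives have a fitted effect of over 65% in size; a mitochondrial uncoupler was the plate control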
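Stable cell line treated 24 h with compounds at 5 concentrations (CCCP controls), then fixed and immunostained for PINK1 plus nuclear and cell stains; PINK1 immunofluorescence quantified by laser-scanning microplate cytometry.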
TRPML1 ag = qHTS for Agonists of the Human Mucolipin Transient Receptor Potential 1 (TRPML1); activation, % (no concentration beside the values); TRPML1-expressing cells, Ca2+ dye fluorescence, FDSS; host cell line not named in the record; reference of the full effect not given here; 410,000 compounds, 0.12% hits; AID 624414, 2012; in the data active = activation above about 50%; inconclusive = about 30% to 50%; inactive = below about 30%; also: 0% is about no effect; the text of the record puts the active cut at 80%
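In this qHTS format, compounds were pin-transferred onto Ca8-dye-loaded TRPML1-DL cells induced with Tet overnight, and intracellular Ca2+ fluorescence was recorded kinetically for 110 s after a 10 s baseline. A subsequent 4uM final 54-4 (EC80) addition followed by a second 110 s read served as the antagonist phase.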
CtBP-E1A inh = qHTS Assay for Inhibitors of the CtBP/E1A Interaction | CtBP / adenovirus E1A interaction (AlphaScreen) | AlphaScreen GST-E1A/His-CtBP binding, 1536-well; stronger effect = lower value; control for the full effect not named in the record | activity change, % (no concentration beside the values) | 340,000 compounds, 0.49% hits; in the data active means activity change below about -65%; inconclusive means about -30% to -65%; inactive means above about -30%; also: % is scaled to controls: 0 for no effect and ±100 for the full control effect
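Homogeneous bead-based format: GST-tagged E1A captured on glutathione donor beads, His-tagged CtBP on nickel acceptor beads; compounds precede bead addition by 2 h at 37 °C.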
Active calls of the source: *; ? = inconclusive; . = no result given; & = joins results of further samples; [ ] = remark or other dose. Rows are unselected; about 1.3% have a hit in one of these screens.

SMILES | D2 potentiator | Six1-Eya2 blk | D2 agonist | PINK1 modulator | TRPML1 ag | CtBP-E1A inh
COc1ccc(N(C)S(=O)(=O)c2cccc(C(=O)OCC(=O)Nc3sc4c(c3C#N)CCCCC4)c2)cc1 | -13 | 5 | -0.5 | 7.8% | 0.0 | 3
CC(C)Oc1ccc(C(=O)Nc2cccc(S(=O)(=O)N3CCCC3)c2)cc1 | -13 | 7 | -1.0 | -1.1% | 1.2 | -5
CN(C)C=Nc1nonc1-c1ncn[nH]1 | -16 | -12 | 1.7 | 0.8% | 0.5 | -1
CCCCCCn1c(-c2ccco2)nc2oc3cc(OC)ccc3c(=O)c2c1=O | -9 | -4 | -1.0 | -0.1%[38.3 µM] | 0.3 | -5
Cc1noc(/C=C/N(C)C)c1S(=O)(=O)N1CCCC(C(=O)NCc2cccs2)C1 (configuration not stated) | -3 | -6 | -8.8 | 0.7% | 0.5 | 1
CC/C(=N\NC(=O)c1ccc2c(c1)OCO2)C12CC3CC(CC(C3)C1)C2 | 8 | 1 | -4.0 | -2.1% | -0.5 | 9
CN(C(=O)CN1C(=O)NC2(CCc3ccccc32)C1=O)C1CCCCC1 (configuration not stated) | -4 | 6 | -7.0 | -1.7% | 1.3 | 16
Cc1cc(C)c(C(=O)COC(=O)Cn2nc(-c3ccccc3)oc2=O)cc1C | -10 | 4 | -4.5 | 0.6% | 0.8 | 6
C/C(=N\NC(=O)C1CC1c1ccccc1)c1cccs1 (configuration not stated) | -7 | 0 | -0.1 | ? | 2.0 | 6
CCC(=O)N1CCc2cc(Br)cc(S(=O)(=O)N(C)c3ccc(OC)cc3)c21 | 7 | -7 | ? | 6.3% | 0.4 | -8
CCN(CC)CCCNC(=O)c1cn(CC)c2ccc(S(=O)(=O)N3CCc4ccccc4C3)cc2c1=O | -11 | 5 | -4.1 | 1.9%&-0.2% | 4.6&-0.6 | 3
OCC1(CC2CCCCO2)CCN(Cc2cccc(O)c2)CC1 (configuration not stated) | -23 | 5 | -0.9 | 0.2% | 0.3 | -18
CCc1ccccc1N1C(=O)[C@@H]2Cc3ccccc3CN2C1=O | -2 | 6 | -0.9 | -1.1% | 4.2 | 4
Cc1cc(C)c2oc(=O)cc(CN3CCC(C)CC3)c2c1 | -6 | -4 | -2.9 | 5.1% | 1.2 | -1
COCC(=O)Nc1ccc(Br)cc1 | -5 | -1 | -3.5 | 1.4% | -0.4 | -10
O=C(NCc1cccc(F)c1)Nc1nnc([C@@H]2C[C@H](O)[C@@H](CO)O2)s1 | -14 | 2 | -3.6 | 1.6% | -0.5 | 5
Cc1ccc(C(=O)NCCCCNC(=O)c2ccc(C)o2)o1 | 10 | 1 | 1.4 | -1.3% | 0.1 | 1
CCN(CC)CCNC(=O)c1ccc(NC(=O)c2ccc(C(=O)c3ccccc3)cc2)cc1 | -24 | 4 | -4.5 | -2.7% | 0.3 | 15
O=C(c1ccco1)N(Cc1ccc([N+](=O)[O-])cc1)c1ccc(Br)cc1 | -6 | ? | -0.7 | 0.6% | 1.3 | -19
CN1C(=O)C(CC(=O)Nc2ccc(Cl)cc2)N(Cc2ccco2)C1=S (configuration not stated) | -13 | -4 | 0.2 | 1.9% | 0.5 | .
CC(C(=O)Nc1ccccc1C(=O)N1CCCC1)n1nnc2ccccc21 (configuration not stated) | -12 | 0 | -2.6 | -3.0%[38.3 µM] | -0.1 | 3
Cc1ccc(S(=O)(=O)NC(C)(C)C)cc1C(=O)OC(C)C(=O)NC1CC1 (configuration not stated) | 8 | -2 | -2.4 | -1.9% | 0.0 | -4
Cc1ccc(S(=O)(=O)N2CCN(C(=O)COC(=O)CCOc3cc(C)ccc3C)CC2)c(C)c1 | -13 | -1 | 5.2 | -1.6% | 2.3 | -7
C[C@@H]1C[C@H]2[C@@H]3C[C@H](F)C4=CC(=O)C=C[C@]4(C)[C@@]3(F)[C@@H](O)C[C@]2(C)[C@@]1(O)C(=O)CO | . | -2 | . | 5.5% | -0.3 | 8
CNC(=O)CN1C(=O)CSc2nc(C)cc(C)c21 | -2 | 2 | -5.2 | 2.5% | -0.4 | -22
CNC(=O)CSc1nnc(-c2cccs2)o1 | 8 | 5 | 0.7 | 6.2% | 0.2 | 8
COc1ccccc1Cc1c(C(C)(C)C)nc2ccc(C)cn12 | -6 | 11 | -2.5 | 29% | -0.4 | 11
Cn1c(=O)c2c(nc(Sc3ncnn3CC(=O)N3CCOCC3)n2C)n(C)c1=O | -10 | 1 | -4.3 | -0.1% | 0.0 | .
CCOc1ccc(S(=O)(=O)N2CCC(C(=O)NCc3cccnc3)CC2)cc1Cl | -7 | 0 | -3.1 | -1.4% | 0.0 | -2
CC(C)CCCN1C(N(C)C)=NC[C@@H]1C | -8 | 9 | -3.1 | 1.4% | -0.8 | 8

Laid out differently: entries from further up
Molecule	D2 potentiator	Six1-Eya2 blk	D2 agonist	PINK1 modulator	TRPML1 ag	CtBP-E1A inh
CN(C)C=Nc1nonc1-c1ncn[nH]1	-16	-12	1.7	0.8%	0.5	-1
CC(C(=O)Nc1ccccc1C(=O)N1CCCC1)n1nnc2ccccc21 (configuration not stated)	-12	0	-2.6	-3.0%[38.3 µM]	-0.1	3

More structures:
SMILES | D2 potentiator | Six1-Eya2 blk | D2 agonist | PINK1 modulator | TRPML1 ag | CtBP-E1A inh
Fc1ccc(NC(=S)N2CCCC(c3ccccc3)=N2)cc1 | 5 | 8 | -3.9 | -0.4% | 2.8 | 4
O=C(NCCCCCCNC(=O)c1cncc(O)c1)c1cncc(O)c1 | -2 | -7 | -3.8 | -2.4% | 0.3 | -4
CCOC(=O)C(c1nc2ccccc2[nH]1)n1c(-c2ccccn2)nc2ccccc21 (configuration not stated) | -6 | -17 | -5.8 | -0.9% | -0.7 | -18
COCc1ccc(C(=O)N2CCCC(C(=O)c3cccc(C(F)(F)F)c3)C2)o1 (configuration not stated) | -7 | 4 | -3.0 | -0.9% | 0.6 | .
COc1ccc(NC(=O)CSC2CCCCC2)cc1 | -3 | 2 | 1.0 | ? | -0.3 | 3
Cc1c(C)c2ccc(OCC(=O)N3CCC[C@@H]3C(=O)O)c(C)c2oc1=O | -1 | -8 | -3.4 | 0.0% | -0.1 | 2
COc1ccc(C2=NOC(Cn3nc(C(=O)NCc4cccs4)cc3-c3ccccc3)C2)cc1 (configuration not stated) | 13 | -3 | 5.2 | 3.9% | 0.1 | 5
CCOC(=O)/C(=N\Nc1cccc(Cl)c1)Sc1nnc(-c2ccc(OC)cc2)n1C | -11 | -5 | 0.3 | 0.6% | 0.5 | 9
Cc1cccc(C)c1NC(=O)CNC(=O)c1ccc(COc2ccccc2)o1 | -13 | -9 | -7.8 | 0.3% | -0.3 | 8
CN(CC(=O)Nc1ccc(N2CCOCC2)cc1)C(=O)c1ccc(CS(C)(=O)=O)cc1 | -5 | -22 | 8.1 | -2.6% | 0.2 | -7
COc1cccc(CN(C)Cc2nc(C3CC3)no2)c1 | -9 | -4 | -3.1 | 0.0% | 0.3 | 0
COc1ccc(-c2nc(C3CCCCC3)c3cc(OC)ccc3n2)cc1 | 0 | -9 | 7.5 | 1.6% | -0.7 | -4
CCOC(=O)c1[nH]c(C)c(C(=O)Nc2ccccc2F)c1C | -9 | -5 | 1.7 | 6.2% | -0.2 | -17
COc1ccccc1N1CCN(C(=S)NC(=O)/C=C/c2ccc(F)cc2)CC1 | -22 | -8 | -5.4 | 1.6% | 0.6 | ?
N#Cc1c(NCCCO)nc(-c2ccccc2)c2c1CCCC2 | -11 | 6 | -3.1 | -1.0% | -0.3 | 9

Profiles from above. Values in the order: D2 potentiator	Six1-Eya2 blk	D2 agonist	PINK1 modulator	TRPML1 ag	CtBP-E1A inh
Cc1c(C)c2ccc(OCC(=O)N3CCC[C@@H]3C(=O)O)c(C)c2oc1=O across the screens: -1	-8	-3.4	0.0%	-0.1	2
CN(CC(=O)Nc1ccc(N2CCOCC2)cc1)C(=O)c1ccc(CS(C)(=O)=O)cc1 across the screens: -5	-22	8.1	-2.6%	0.2	-7
CCOC(=O)/C(=N\Nc1cccc(Cl)c1)Sc1nnc(-c2ccc(OC)cc2)n1C across the screens: -11	-5	0.3	0.6%	0.5	9

Additional records
SMILES | D2 potentiator | Six1-Eya2 blk | D2 agonist | PINK1 modulator | TRPML1 ag | CtBP-E1A inh
C=CCn1c(C)cc(C(=O)COC(=O)C2CC(=O)N(Cc3ccccc3)C2)c1C (configuration not stated) | 7 | -6 | -1.1 | -1.0% | -0.1 | -3
CCCn1c(=N)n(CC(O)COc2cccc(C)c2)c2ccccc21 (configuration not stated) | 3 | -2 | 2.0 | -1.3% | -1.5 | 2
COCCNC(=O)C1CCC(=O)N1S(=O)(=O)c1ccc(C)cc1 (configuration not stated) | -1 | -17 | 0.0 | 2.2% | -0.6 | 0
Cc1cccc2cc(C3CC(c4ccco4)=NN3S(C)(=O)=O)c(Cl)nc12 (configuration not stated) | 1 | -5 | -3.3 | 2.4% | 0.4 | -9
CC1=NN(C(=O)c2csc(C(C)C)c2)C(O)(C(F)(F)F)C1 (configuration not stated) | -20 | -1 | -7.0 | 11% | 2.5 | 7
O=C(O)CCS(=O)(=O)c1cccc2cccnc12 | -18 | -6 | -1.2 | 7.6%[38.3 µM] | 0.7 | 0
CCn1cc(C(=O)O)c(=O)c2cc(F)c(N3CCN(S(=O)(=O)c4ccc(NC(C)=O)cc4)CC3)cc21 | 0 | 2 | 3.0 | -1.4% | 0.7 | 3
Cc1nn(CCCC(=O)NCc2ccco2)c(=O)c2nn(-c3ccccc3)c(C)c12 | -7 | 0 | -1.4 | 0.4% | 1.0 | -4
CCCN1CCN(CCCNC(=O)Cn2cc3c(n2)CCCC3)CC1 | -5 | 0 | 0.9 | 0.1% | -0.3 | 1
CCOc1ccc(NC(=O)CCN2CCN(S(=O)(=O)c3ccc(F)cc3)CC2)cc1 | -11 | 2 | -1.1 | -1.2% | -0.5 | 0
O=C1c2ccccc2C(Nc2ccc(S(=O)(=O)N3CCCCCC3)cc2)N1c1ccccn1 (configuration not stated) | -7 | 0 | -3.5 | 5.4% | 0.2 | -12
COc1ccc2[nH]cc(CCNC(=O)CC[C@H]3O[C@@H](n4cc(C)c(=O)[nH]c4=O)C[C@@H]3O)c2c1 | . | 0 | -0.4 | 1.9% | -0.6 | 2
COC(=O)C1=C(C)N(C)C(=O)NC1c1c(OC)ccc2ccccc12 (configuration not stated) | -7 | -1 | -2.5 | 0.5% | -0.5 | -9
Cc1ccc(S(=O)(=O)Nc2nc(C)c(C(=O)NNS(=O)(=O)c3cc(C)ccc3C)s2)cc1 | 2 | 5 | 0.7 | -0.9% | 0.3 | -11
Cc1ccc(S(=O)(=O)N2CCN(S(=O)(=O)N(C)C)CC2)c(C)c1 | -3 | 6 | -1.3 | . | 0.5 | 4
CCCOc1ccccc1NC(=O)/C=C/c1ccc(OC)c(S(=O)(=O)N2CCOCC2)c1 | -13 | -12 | -1.1 | 1.7% | -0.5 | 4

Screening data (PubChem)
